gsp agonist – gsp mutant agonism; gsp mutant cells, cAMP HTRF, 30 min; control for the full effect not named in the record; Potency, µM (titrated, usually from 76.9 µM), for inactives: at the highest dose activation (cAMP increase), actives largely listed as activators; 0.13% of 340,000 active; AID 624287; active = well fitted activation curve with a large enough effect; inconclusive = small, poorly fitted or top-dose-only effect, or another doubt; inactive = no such curve, though single readings can be large or run the other way; cell line not stated here;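 also: phosphodiesterase inhibitor Ro 20-1724 added with compounds to block cAMP breakdown; potency is read from the fitted curve at half-maximal effect; nearly all actives have a fitted effect of over 60% in size; about a fifth of the inactives were tested at one dose only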
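Cells stably selected in G418 were plated at 2000/well, grown 16-24 hr, then given compounds in DMSO with the PDE inhibitor […] (300 uM solution added) for 30 min at 37C; cAMP was read by HTRF.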
gsp antag – gsp mutant antagonism; gsp-mutant cells, cAMP HTRF, 30 min; control for the full effect not named in the record; Potency, µM (top dose mostly 76.9 µM), for the others: at the top dose activity change, negative = inhibition, actives largely listed as inhibitors; 0.4% of 340,000 active; AID 624288; active = falling curve of any shape with a large fitted effect; inconclusive = falling curve, mostly with a smaller effect; inactive = flat or rising curve; cell line not stated here;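 also: intracellular cAMP measured with PDE inhibitor Ro 20-1724 present during compound exposure; potency is read from the fitted curve at half-maximal effect; % is scaled to controls: 0 for no effect and ±100 for the full control effect; nearly all actives have a fitted effect of over 65% in size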
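HTRF cAMP measurement after 30 min RT detection following 30 min, 37C compound treatment alongside […] (added as 300 uM solution) in G418-selected cells seeded at 2000/well and grown 16–24 h.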
Menin MLL FP FL – inhibitors of human menin-MLL interaction, wild-type MLL peptide. 290,000 tested, under 10 active. FP activity change, % at 61.4 µM. Fluorescence polarization, fluorescein-MLL peptide displacement from menin; inconclusive = falling polarisation curve, or a change in total fluorescence; inactive = total fluorescence flat and polarisation flat or rising; no compound was filed as active; the % refers to the polarisation; negative = inhibition;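 also: % of control where 0% means no effect; inhibitors lower the polarisation; unlabelled MLL peptide was the positive control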
PINK1 modulator – modulators of PINK1 expression; 0.2% of 410,000 active; Potency, µM (top dose mostly 76.6 µM), inactives show top-dose activation (PINK1 increase), hits mostly activators; PINK1 immunofluorescence, high-content cytometry, 24 h; active = well fitted activation curve with a large enough effect; inconclusive = small, poorly fitted or top-dose-only effect; inactive = flat fitted curve, though single readings scatter; cell line not stated here;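 also: potency is read from the fitted curve at half-maximal effect; % of control where 0% means no effect; nearly all actives have a fitted effect of over 65% in size; a mitochondrial uncoupler was the plate control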
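A stable cell line was treated with compounds at 5 concentrations for 24 hours, with CCCP as control. PINK1 levels and mitochondrial localization were measured by immunofluorescence with mitochondrial, cell and nuclear markers after fixation, read by laser-scanning cytometry.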
ClpP mod – qHTS Assay for Activators of ClpP; purified B. subtilis ClpP, FRET peptide cleavage, 20 min; Potency, µM (doses to about 57.5 µM), for inactives: top-dose activity change, negative = active; 1.9% of 340,000 active; AID 651965, 2013; active = well fitted falling curve with a large enough effect; inconclusive = small, poorly fitted or top-dose-only effect; inactive = no such curve, though single readings can be large or run the other way; also: potency is read from the fitted curve at half-maximal effect; the source files actives as falling curves though it sought activators and does not explain the sign; nearly all actives have a fitted effect of over 65% in size; many hits overshoot -100%
Target sequence (P80244 whole entry, looked up): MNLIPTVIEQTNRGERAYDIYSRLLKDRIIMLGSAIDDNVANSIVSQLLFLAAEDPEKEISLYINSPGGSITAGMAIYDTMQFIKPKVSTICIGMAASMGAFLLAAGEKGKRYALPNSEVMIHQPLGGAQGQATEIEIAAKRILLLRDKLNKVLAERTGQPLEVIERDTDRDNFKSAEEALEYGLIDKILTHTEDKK
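ClpP 10 microg/mL final, pH 8 Tris/KCl buffer with BSA, glycerol, Tween-20; compound pinned in; FRET-FV substrate; RT 20 min; Ex320/Em430; ΔFRET vs ADEP 5.8 microM, DMSO, no enzyme.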
Sfp PPTase inh – Sfp phosphopantetheinyl transferase inhibition | Potency, µM, for inactives: max response, negative = inhibition, actives largely listed as inhibitors | 3.5% of 310,000 active | Biochemical Sfp PPTase activity, qHTS; active = well fitted inhibition curve with a large enough effect; inconclusive = small, poorly fitted or top-dose-only effect, or another doubt; inactive = no such curve, though single readings can be large or run the other way;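 also: the enzyme is Sfp with the accession as filed and its product quenches rhodamine fluorescence; potency is read from the fitted curve at half-maximal effect; 0% = enzyme reaction without inhibitor and -100% = no enzyme wells; top concentration of the series not given in the record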
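Reaction rates are the 30-min fluorescence difference (ex 525, em 598 nm) in wells containing 15 nM Sfp, 5 uM rhodamine-CoA and 12.5 uM BHQ-2-YbbR at pH 7.6 with 10 mM MgCl2.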
D2 agonist – human D2 receptor agonism in beta-arrestin assay. P14416. DiscoveRx PathHunter D2 beta-arrestin, luminescence, 90 min; 100% = 57 uM dopamine signal. activation, % (no concentration beside the values). 0.084% of 360,000 active. AID 624465; in the data active = activation above about 40%; inconclusive = about 15% to 40%; inactive = below about 15%; also: compound concentration not given in the record; the text of the record calls up to 30% inactive
Target sequence (P14416 whole entry, looked up): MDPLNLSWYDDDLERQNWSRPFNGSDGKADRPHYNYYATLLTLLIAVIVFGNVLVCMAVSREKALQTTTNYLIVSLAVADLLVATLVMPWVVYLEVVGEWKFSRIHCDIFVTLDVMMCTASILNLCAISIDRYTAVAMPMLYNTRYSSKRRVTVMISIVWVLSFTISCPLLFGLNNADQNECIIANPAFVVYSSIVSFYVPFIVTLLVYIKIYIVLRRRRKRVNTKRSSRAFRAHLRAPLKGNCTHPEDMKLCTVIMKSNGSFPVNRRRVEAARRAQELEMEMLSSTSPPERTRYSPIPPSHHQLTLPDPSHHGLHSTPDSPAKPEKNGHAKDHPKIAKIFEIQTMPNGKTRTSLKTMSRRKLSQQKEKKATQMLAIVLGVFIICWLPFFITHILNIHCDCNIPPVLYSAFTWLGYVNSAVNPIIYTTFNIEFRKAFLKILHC
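DiscoveRx PathHunter D2 beta-arrestin cells (2,100/well) attached overnight, then compound-stimulated 90 min at 37 C in HBSS/10 mM HEPES/0.1% Tween-20 buffer; beta-galactosidase complementation read by luminescence after 1 h at ambient temperature. Dopamine 57 uM final (EC100) as control.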
* marks the source's active call; other numbers are inactive results; ? = inconclusive; nt = no result given; [ ] = another dose, or the depositor's remark.

Order of results – ClpP mod	gsp agonist	gsp antag	D2 agonist	PINK1 modulator	Menin MLL FP FL	Sfp PPTase inh
COc1ccccc1NC(=O)C(Sc1ccccc1)c1ccccc1 (stereo not drawn)
 : -1.9%	-5%[15.4 µM]	-26%	0.0	8.2%	1.1	27%
CC1CCN(C(=O)c2[nH]cnc2C(=O)N[C@@H](C)C(=O)OC(C)(C)C)CC1
 : 0.1%	nt	9%	-2.2	-1.5%	3.0	16%
CC/C(=N\NC(=S)NC(C)C)c1ccc(OC(F)F)cc1
 : nt	3%[15.4 µM]	-9%	-6.8	0.7%	-0.1	-2%
CCC(Sc1nc2ccccc2c(=O)n1CCN1CCOCC1)C(=O)NCc1cccnc1 (stereo not drawn)
 : -1.6%	?	5%	-3.0	-1.4%[38.3 µM]	-1.9	15%
Cc1ccc(Nc2ccccc2)cc1
 : -10%	-44%[inhibitor]	-12%	-2.3	-0.2%	-3.1	-7%
CN1C(=S)N(c2cccnc2)C(=O)/C1=C\c1ccc(C(C)(C)C)cc1
 : 1.9%	-1%	?	-1.6	?	9.3	?
COc1ccc(/C=N/NC(=O)c2ccncc2)cc1CN1CCN(c2ccc(F)cc2)CC1
 : 0.5%	-7%[15.4 µM]	10%	-4.2	1.8%	0.9	4%
COc1ccccc1NC(=O)N(CCN1CCCC1)Cc1cc2cc(C)ccc2[nH]c1=O
 : -8.0%	4%	2%	-1.0	-3.0%[38.3 µM]	nt	nt
Nc1c(C(=O)OCC2CCCO2)c2nc3ccccc3nc2n1C1CCCC1 (stereo not drawn)
 : 25µM*	-67%[inhibitor]	-13%	-0.9	3.3%	5.2	-13%
Cc1cc2c(nn1)CCc1nonc1-2
 : 0.0%	?	6%	1.4	-0.7%[38.3 µM]	1.1	10%
Cc1ccc(C)c(NC(=O)C(C)N2C(=O)c3ccccc3C2=O)c1 (stereo not drawn)
 : nt	-32%[inhibitor]	0%	-0.9	1.3%	-2.5	5%
O=C(CSc1nnc(-c2ccco2)o1)NC(=O)C1COc2ccccc2O1 (stereo not drawn)
 : -20%	?	-1%	-1.1	-1.8%	-0.6	?
COc1cccc(OCCSc2nc3ccccc3c(=O)[nH]2)c1
 : nt	7%[15.4 µM]	nt	-1.9	3.0%	1.2	-9%
O=C(COC(=O)/C=C/c1ccccc1Cl)NC(=O)NC1CCCC1
 : -1.4%	-1%[15.4 µM]	1%	0.1	-1.8%	nt	nt
COc1ccc(OC)c(C(C)NC(=O)C(C)n2cc([N+](=O)[O-])cn2)c1 (stereo not drawn)
 : -0.2%	8%	2%	-4.5	-0.2%	nt	nt
COc1cccc(CN(C)CCCn2cnc3c(OC)ncnc32)c1
 : 0.5%	-30%	nt	-2.5	1.9%	nt	nt
CCOC(=O)C1(CCCc2ccccc2)CCN(CC(O)CO)CC1 (stereo not drawn)
 : nt	5%[15.4 µM]	14%	2.4	0.3%	-1.8	6%
CC(C)(C)NC(=O)CSc1nc(O)cc(=O)[nH]1
 : -0.6%	-33%[inhibitor]	7%	1.2	0.0%	8.6	3%
CCOC(=O)c1c(NC(=O)C(Sc2ccccc2)c2ccccc2)sc(C(=O)N(C)C)c1C (stereo not drawn)
 : -1.1%	-8%	25%	-5.6	5.2%	0.9	-8%
COc1ccccc1CNC(=O)CSc1nc(C)cs1
 : 2.5%	13%	11%	-0.4	1.4%	-2.8	19%
CSc1cc(N2CCOCC2)nc(-c2ccccc2Cl)n1
 : 0.4%	0%[15.4 µM]	-27%	-0.9	2.7%	2.0	8%
CC(=O)Nc1cccc(-c2cn3ccc(C)cc3n2)c1
 : 3.5%	-28%	-10%	0.3	0.4%	-1.3	-12%
CC(Sc1ccccc1)C(=O)NCC1COc2ccccc2O1 (stereo not drawn)
 : 0.8%	6%	10%	-4.6	-0.8%	nt	nt
O=C(NCCN1CCOCC1)C1CCC(CNS(=O)(=O)c2ccccc2)CC1 (stereo not drawn)
 : -0.1%	-4%[15.4 µM]	9%	-4.6	-0.8%	-1.8	2%
CC1(C)Cc2c(cnn2-c2ccc(F)cc2)C(NC(=O)C2=CC(=O)CC(C)(C)O2)C1 (stereo not drawn)
 : 0.0%	-87%	nt	-0.4	3.6%	nt	nt
CN(C)C(CNC(=S)Nc1ccc(Cl)cc1)c1cccnc1 (stereo not drawn)
 : nt	-8%[15.4 µM]	6%	-8.5	-0.4%	0.2	10%
O=C(Nc1nnc(-c2ccc(Br)cc2)o1)c1cccc(N2C(=O)CCC2=O)c1
 : -1.5%	28%	?	-5.2	7.9%	nt	nt
COC(=O)C1=C(C)Nc2c(c(=O)n(C)c(=O)n2C)C1c1cccs1 (stereo not drawn)
 : -2.3%	-17%	0%	-2.0	-0.5%	2.7	7%
O=C(NC1CCCC1)C(NS(=O)(=O)c1ccc(Br)s1)c1ccccc1 (stereo not drawn)
 : -2.6%	-3%	6%	-2.5	8.4%	0.5	18%
CCOC(=O)c1[nH]c2ccc(OC)cc2c1NC(=S)N1CCN(C(=O)OCC)CC1
 : 0.1%	?	-5%	-8.9	0.4%	-1.6	-28%
CN(C)N=Nc1nc2c(c(=O)n(C)c(=O)n2C)n1CC1CO1 (stereo not drawn)
 : -1.9%	4%[15.4 µM]	5%	-3.6	-2.3%	2.7	12%
O=C(CSc1ccc2nnc(-c3cccnc3)n2n1)Nc1ccccc1C(F)(F)F
 : 3.4%	?	-18%	-1.4	0.5%	nt	12%
Cc1ccc(C)c(S(=O)(=O)N2CCCCC2CCNC(=O)C(=O)NCCc2ccco2)c1 (stereo not drawn)
 : -1.6%	-70%[inhibitor]	-16%	3.7	-2.5%	nt	nt
CC1(C)CC(=O)C2=C(C1)N=C1SCCC(=O)N1C2c1ccccc1 (stereo not drawn)
 : 1.9%	-31%	-2%	-1.9	?	-1.0	6%
O=c1[nH]c(C2CCN(S(=O)(=O)c3ccc([N+](=O)[O-])cc3)CC2)nc2c1nnn2Cc1ccccc1
 : nt	-19%	7%	15	1.7%	nt	-5%
CCCNC(=O)C1CCN(S(=O)(=O)c2ccc3c(c2)OCCO3)CC1
 : -0.6%	-31%[inhibitor]	9%	-5.0	1.2%	nt	nt
C=CCn1c(C)cc(C(=O)COC(=O)CNC(=O)c2ccccc2)c1C
 : 0.4%	4%	-2%	-4.7	-0.9%	3.9	-2%
O=C(NCc1ccncc1)C1CCN(S(=O)(=O)c2ccc(F)cc2)CC1
 : nt	-1%[15.4 µM]	0%	0.1	0.1%	-5.8	18%
O=C(COC(=O)c1cccs1)Nc1ccc(F)c(F)c1
 : 0.0%	-20%	-6%	1.9	-0.2%	nt	nt
COc1ccc(CN(CC2CCC(C(=O)O)CC2)C(=S)Nc2ccc(C)c(Cl)c2)cc1 (stereo not drawn)
 : 3.1%	10%	?	0.0	1.8%	-0.5	14%
COC(=O)[C@]1(Cc2ccccc2)N[C@H](CN(C)C(=O)NC(C)C)[C@@H]2C(=O)N(Cc3ccccc3)C(=O)[C@@H]21
 : -2.7%	nt	-4%	-2.8	0.8%	nt	nt
COc1ccc(NC(=O)c2cc3nc(-c4ccccc4)cc(-c4ccccc4)n3n2)c(OC)c1
 : 0.5%	1%	3%	-0.7	2.8%	7.2	?
CCn1cc(C(=O)NC(C)C23CC4CC(CC(C4)C2)C3)cn1 (stereo not drawn)
 : -4.5%	0%[15.4 µM]	16%	-1.9	2.0%	4.2	6%
O=C(CSc1nc2ccccc2c(=O)n1CCCN1CCOCC1)NC12CC3CC(CC(C3)C1)C2
 : 0.3%	-4%	-7%	0.2	-0.4%	1.4	-17%
COc1ccc(S(=O)(=O)NC2CC2)cc1Br
 : 0.8%	-23%	5%	0.8	2.3%	-0.8	-3%
CCCNC(=O)C1(C)CCN(CCS(=O)(=O)c2ccc(C)cc2)C1 (stereo not drawn)
 : -2.8%	nt	nt	0.1	0.4%	nt	nt
O=C(Cn1nnc(-c2cc(Cl)ccc2-n2cnnn2)n1)N1CCCc2ccccc21
 : -2.8%	-32%[inhibitor]	-3%	-1.9	0.3%	2.0	-1%
CC(N)c1ccc(Cl)cc1Cl (stereo not drawn)
 : -1.5%	24%	-6%	1.0	2.7%	2.8	16%
CCCn1ncc(OC)c(Cl)c1=O
 : 3.3%	25%	11%	-2.6	-2.7%[38.3 µM]	3.3	8%
Nc1c2c(nc3ccc(Br)cc13)N(Cc1ccccc1)CC2
 : -11%	-119%[inhibitor]	3%	-6.5	?	20	?

(cont.)
Order of results – ClpP mod	gsp agonist	gsp antag	D2 agonist	PINK1 modulator	Menin MLL FP FL	Sfp PPTase inh
CCN(C(=O)CSc1nnc(Nc2cccc(C)c2C)s1)C1CCS(=O)(=O)C1 (stereo not drawn)
 : -1.5%	0%	6%	0.6	-2.3%	0.5	15%
CN(C)C(=O)c1nc2ccc(Cl)cn2c1CN1CCCC(OCc2ccccc2)C1 (stereo not drawn)
 : nt	-21%[15.4 µM]	-2%	-4.0	3.1%	-15	10%
Cc1ccc(N=Cc2cc(Cc3ccccc3Cl)cc([N+](=O)[O-])c2O)c(O)c1
 : -0.6%	-102%[inhibitor]	-29%	-8.0	-1.4%	?	50µM*
O=C(OCc1nnc(-c2ccccc2)o1)c1ccc(-n2cnnn2)cc1
 : nt	26%[15.4 µM]	-1%	-3.0	2.2%	nt	nt
COc1cccc(CNc2nnnn2C)c1OC
 : 0.2%	-3%[15.4 µM]	6%	-2.6	-1.4%	-2.0	17%
Cc1cccc(C(=O)Nc2cccc(NC(=O)c3ccccc3)c2)c1
 : -2.4%	-2%[15.4 µM]	-19%	-0.4	0.5%	-1.9	2%
Cc1ccc(NC(=O)/C(C#N)=C/c2cc(C)n(-c3ccc(N4CCOCC4)c([N+](=O)[O-])c3)c2C)c(C)c1
 : 0.9%	-8%	-11%	-0.8	8.6%	0.7	8%

An unsorted share of the library, and some 5.1% of all compounds hit somewhere here.
